Resorufin autofl: compound fluoresces in the resorufin spectral region; max dye-equivalent concentration, M; Compound fluorescence, resorufin region 547/598 nm, buffer; active compounds read high; hit rate 0.04% among 59,000; AID 588; active = above 10 nM dye equivalent; inconclusive = 1 to 10 nM; inactive = 1 nM or less; a few of its hits are not listed in these tables; note: highest value over a series up to 38 µM
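Compounds in 100 mM Tris, pH 8.0, incubated 15 min at room temperature, then fluorescence read at 547 nm excitation/598 nm emission. Signal converted to dye-equivalent concentration via an on-plate six-point resorufin standard curve, per compound concentration.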
A647 autofl: compound fluoresces in the A647 spectral region | Compound fluorescence, A647 channel (570/671 nm), Tris buffer | max dye-equivalent concentration, M | 59,000 tested, under 10 active | AID 592; active means above 1 µM dye equivalent; inconclusive means 0.1 to 1 µM; inactive means 0.1 µM or less;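 note: values scaled relative to a standard on each plate; highest value over a series up to 38 µM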
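Compounds pinned into 100 mM Tris pH 8.0, 15 min at room temperature, then read with 570 nm excitation/671 nm emission filters. Fluorescence normalized to an on-plate six-point Alexa 647 standard curve, giving dye-equivalent concentration per compound concentration.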
A488 fluor: compound fluoresces in the A488 spectral region | hit rate 0.1% among 59,000 | compound autofluorescence, A488 spectral region, dye equivalency; active compounds read high | max dye equivalency, M; active = above 10 nM dye equivalent; inconclusive = 1 to 10 nM; inactive = 1 nM or less; about half of its hits are not listed in these tables;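 note: highest value over a series up to 38 µM; compound alone in buffer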
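Intrinsic compound fluorescence is measured in 100 mM Tris buffer at pH 8.0 following 15 min incubation at room temperature. Intensities at 480 nm excitation/540 nm emission are calibrated to an on-plate A488 concentration series, giving dye-equivalent concentrations.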
AID923: qHTS Assay for Allosteric/Competitive Inhibitors of Caspase-1: Spectroscopic Profiling in AFC Spectral Region | hit rate 1.1% among 75,000 | compound fluorescence, AFC spectral region (405/520 nm); almost no hit is shown here | Potency, µM (doses to about 57.5 µM), inactives show at the top dose fluorescence increase, most hits filed as activators; active = well fitted activation curve with a large enough effect; inconclusive = small, poorly fitted or top-dose-only effect;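 note: potency is the fitted concentration of half-maximal effect; 0% is about no effect; scaled to a free AFC standard on each plate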
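Compound autofluorescence profiled at 405 nm ex/520 nm em during kinetic caspase 1 run (50 nM enzyme, 5 uM Ac-WEHD-AFC, HEPES pH 7.5, 10 mM DTT). Titration up to 57 uM; baseline from regression intercept, normalized to AFC standard curve.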
TSHR ag: agonists of human thyroid stimulating hormone receptor; Potency, µM (top dose mostly 57.1 µM), for the others: top-dose activation, usual class: activators; hit rate 0.48% among 73,000; P16473; AID 926; HEK293-CNG-TSHR cells (CNG channel as cAMP sensor), membrane potential dye, cAMP; active = well fitted activation curve of enough size with the parental cells flat; inconclusive = any curve in the parental cells; inactive = parental cells flat and receptor cells flat or falling; note: potency is the fitted concentration of half-maximal effect; % of control where 0% means no effect; weak receptor curves with flat parental cells got no call and are not listed
Target sequence (P16473 whole entry, looked up): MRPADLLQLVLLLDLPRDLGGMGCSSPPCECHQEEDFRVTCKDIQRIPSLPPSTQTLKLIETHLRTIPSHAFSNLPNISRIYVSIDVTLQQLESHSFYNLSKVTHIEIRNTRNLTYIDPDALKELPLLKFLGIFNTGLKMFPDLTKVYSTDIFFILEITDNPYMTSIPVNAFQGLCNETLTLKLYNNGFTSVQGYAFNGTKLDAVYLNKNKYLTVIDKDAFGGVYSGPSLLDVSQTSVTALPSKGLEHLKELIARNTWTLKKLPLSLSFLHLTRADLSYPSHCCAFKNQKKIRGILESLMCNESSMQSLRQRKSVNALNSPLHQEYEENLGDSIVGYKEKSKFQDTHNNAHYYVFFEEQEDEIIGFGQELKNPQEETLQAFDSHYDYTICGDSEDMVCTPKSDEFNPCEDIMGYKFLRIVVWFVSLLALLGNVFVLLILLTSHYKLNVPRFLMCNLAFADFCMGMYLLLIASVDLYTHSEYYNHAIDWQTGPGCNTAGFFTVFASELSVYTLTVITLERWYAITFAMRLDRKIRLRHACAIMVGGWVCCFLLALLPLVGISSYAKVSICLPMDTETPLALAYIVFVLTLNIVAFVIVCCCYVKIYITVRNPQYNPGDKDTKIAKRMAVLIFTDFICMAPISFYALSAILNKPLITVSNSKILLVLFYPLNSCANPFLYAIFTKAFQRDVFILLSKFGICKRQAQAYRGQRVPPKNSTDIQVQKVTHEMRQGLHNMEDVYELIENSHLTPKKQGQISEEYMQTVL
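cAMP rise detected as CNG-channel membrane depolarization by fluorescent dye (emission 590 nm), 30 min after compound, following 60 min dye loading containing 100 uM RO 20-1724 at room temperature. Cells: TSHR/CNG HEK 293, with parental CNG HEK 293 as control.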
Starred values were filed as active, the others as inactive; [ ] = dose if it differs, or a comment.

`C/C(CC/C(C)=N/O)=N/O` gave Resorufin autofl inactive, A647 autofl 2.49e-08, A488 fluor inactive, AID923 -1.0%[11.5 µM] and TSHR ag -2.1%[11.4 µM].
CC(=O)c1ccc(NC(=O)C2CC(c3ccc(F)cc3)=NO2)cc1 (stereo not drawn) was read as Resorufin autofl inactive, A647 autofl 1e-09, A488 fluor inactive, AID923 0.5% and TSHR ag 4.9%.
Screening Cc1oc(-c2ccccc2F)nc1CS(=O)(=O)CC(=O)NCc1ccco1 returned AID923 3.1% and TSHR ag inconclusive.
For CCN(CC)S(=O)(=O)c1ccc2oc(SCc3ccc(F)cc3)nc2c1 the results were Resorufin autofl inactive, A647 autofl 1e-09, A488 fluor inactive, AID923 0.5% and TSHR ag inconclusive.
COc1ccc(NC(=O)N2CCC3(CC2)CCN(C(=O)c2cc(C(F)(F)F)cc(C(F)(F)F)c2)CC3)cc1 was read as Resorufin autofl inactive, A647 autofl 1e-09, A488 fluor inactive, AID923 2.7% and TSHR ag 14.6%.
Screening Cc1cc(C(=O)NCc2ccc3c(c2)OCO3)n(-c2ccccc2)n1 returned AID923 4.2% and TSHR ag 13.0%.
Screening O=c1c(CN2CCN(Cc3ccccc3)CC2)coc2ccc(Cl)cc12 returned AID923 1.3% and TSHR ag 21.4%[11.4 µM].
`Cn1c(=O)[nH]c(=O)c2c1nc(CN(Cc1ccccc1)Cc1ccccc1)n2CCN1CCOCC1` gave Resorufin autofl inactive, A647 autofl 2e-09, A488 fluor inactive, AID923 -0.9% and TSHR ag 2.5%.
CCn1c(Cn2nnc(-c3ccccc3)n2)nnc1SCC(=O)Nc1ccc(N(C)C)cc1 was read as Resorufin autofl inactive, A647 autofl 2.56e-08, A488 fluor inactive, AID923 -0.5% and TSHR ag -2.9%.
`O=C(NC(Cc1ccccc1)C(=O)O)OCc1ccccc1` (stereo not drawn) gave AID923 -0.6% and TSHR ag inconclusive.
Cc1cc2c3c(c1)C1(C(=O)N3C(C)(C)CC2C)C(C#N)=C(N)Oc2cc(O)ccc21 (stereo not drawn) was read as Resorufin autofl inactive, A647 autofl 1e-09, A488 fluor inactive, AID923 -3.7% and TSHR ag -8.0%.
For Cc1cccc(CS(=O)(=O)Cc2ccc(C(=O)NCCCN3CCOCC3)o2)c1 the results were Resorufin autofl inactive, A647 autofl 1e-09, A488 fluor inactive, AID923 0.1% and TSHR ag -3.8%.
`CCOCc1cc(C)[nH]c(=O)c1C#N` gave Resorufin autofl inactive, A647 autofl 1e-09, A488 fluor inactive, AID923 -0.2% and TSHR ag 2.4%.
Screening O=C(CCn1c(=O)oc2ccccc21)N1CCN(C(c2ccccc2)c2ccccc2)CC1 returned Resorufin autofl inactive, A647 autofl 3.9e-09, A488 fluor inactive and AID923 0.3%.
Screening O=C(c1cnccn1)N1CCC2(CC1)CN(c1ccccn1)C2 returned Resorufin autofl inactive, A647 autofl 2.3e-08, A488 fluor inactive, AID923 -0.1% and TSHR ag -2.6%.
CCCc1cc(C(=O)Nc2sc3c(c2C(=O)OCC)CCCC3)no1 was read as AID923 0.7% and TSHR ag -7.8%.
For Cc1noc(C)c1S(=O)(=O)N(CC(=O)N1CCn2c1nc1ccccc12)c1ccc(C(C)C)cc1 the results were AID923 -5.6% and TSHR ag -3.7%.
`Cc1nnc(NC2=NCCC2)s1` gave Resorufin autofl inactive, A647 autofl 3.39e-08, A488 fluor inactive, AID923 -0.7% and TSHR ag 0.0%.
Screening CNC(=O)[C@@H]1O[C@@H](n2cnc3c(NCc4cccc(I)c4)ncnc32)[C@H](O)[C@@H]1O returned Resorufin autofl inactive, A647 autofl 1e-09, A488 fluor inactive and AID923 0.1%.
For C(=N\c1nc2ccccc2[nH]1)/c1cccs1 the results were AID923 0.7% and TSHR ag 2.3%.
`O=C(CCn1c(=S)[nH]c2cc3c(cc2c1=O)OCO3)N1CCN(C2CCCCC2)CC1` gave Resorufin autofl inactive, A647 autofl 5e-09, A488 fluor inactive, AID923 2.2% and TSHR ag 9.6%.
Screening COC(=O)c1[nH]c(C)c(/C(O)=C2\C(=O)C(=O)N(CCN(C)C)C2c2cccc(OC)c2OC)c1C (stereo not drawn) returned Resorufin autofl inactive, A647 autofl 1.9e-08, A488 fluor inactive, AID923 -1.1% and TSHR ag 1.8%.
For CCOC(=O)C1C(=O)CC(C)(O)C(C(=O)OCC)C1c1ccco1 (stereo not drawn) the results were AID923 0.8% and TSHR ag 13.8%.
For CC1(C)OC(C(O)(c2cccc3c2oc2ccccc23)c2cccc3c2oc2ccccc23)C(C(O)(c2cccc3c2oc2ccccc23)c2cccc3c2oc2ccccc23)O1 (stereo not drawn) the results were AID923 0.3%[11.5 µM] and TSHR ag -4.1%[11.4 µM].
Screening CCc1ccccc1N1C[C@@]23C=C[C@@H](O2)C(C(=O)OCC(C)C)[C@H]3C1=O (stereo partly drawn) returned Resorufin autofl inactive, A647 autofl 1e-09, A488 fluor inactive, AID923 -0.1% and TSHR ag 6.5%.
C/C=C/c1ccc(Oc2nnnn2-c2ccc(C(N)=O)cc2)c(OC)c1 was read as Resorufin autofl inactive, A647 autofl 2.07e-08, A488 fluor inactive, AID923 -1.1% and TSHR ag 7.1%.
For O=C(CSc1nc(-c2ccccc2)cs1)NC(=O)NCc1ccco1 the results were Resorufin autofl inactive, A647 autofl 3.8e-09, A488 fluor inactive, AID923 0.5% and TSHR ag -1.7%.
Screening CCn1cc(C(=O)Nc2cccc(NC(C)=O)c2)c2cc(OC)c(OC)cc2c1=O returned Resorufin autofl inactive, A647 autofl 1.12e-08, A488 fluor inactive, AID923 -0.7% and TSHR ag -0.1%.
Screening Cc1nc2sc(C(c3cccs3)N3CC(C)CC(C)C3)c(O)n2n1 (stereo not drawn) returned AID923 1.1% and TSHR ag 15.7%.
Screening CCCS(=O)(=O)N1CCN(C(=O)c2ccco2)CC1 returned AID923 0.8% and TSHR ag 2.3%.

Next part (two carried over from the part before).
Screening Cc1nc2sc(C(c3cccs3)N3CC(C)CC(C)C3)c(O)n2n1 (stereo not drawn) returned AID923 1.1% and TSHR ag 15.7%.
Screening CCCS(=O)(=O)N1CCN(C(=O)c2ccco2)CC1 returned AID923 0.8% and TSHR ag 2.3%.
Screening O=C(CCN1C(=O)c2ccncc2C1=O)NCc1ccc(Cl)cc1 returned Resorufin autofl inactive, A647 autofl 1.57e-08, A488 fluor inactive, AID923 0.8% and TSHR ag 2.7%.
For CC1CCC(NC(=O)c2ccc(CS(=O)(=O)Cc3ccccc3F)o2)CC1 (stereo not drawn) the results were Resorufin autofl inactive, A647 autofl 1e-09, A488 fluor inactive, AID923 1.2% and TSHR ag 8.3%.
Screening Cc1ccsc1C=Nc1ccc(O)cc1 returned AID923 7.0% and TSHR ag -6.2%.
CN1CCN(C(=O)c2ccc3c(c2)N(Cc2ccc(Cl)cc2)C(=O)c2ccccc2S3=O)CC1 (stereo not drawn) was read as AID923 0.3% and TSHR ag -5.2%.
Screening CCOc1ccccc1C1C(C#N)=C(N)Oc2n[nH]c(CC)c21 (stereo not drawn) returned Resorufin autofl inactive, A647 autofl 5.6e-09, A488 fluor inactive, AID923 0.3% and TSHR ag 19.7%.
`OC(CN1CCN(c2ccccn2)CC1)Cn1c2ccccc2c2ccccc21` (stereo not drawn) gave Resorufin autofl inactive, A647 autofl 5.1e-09, A488 fluor inactive, AID923 -1.3% and TSHR ag 9.2%.
`Cc1ccccc1-c1nc(CN2CCC(C(=O)NCCC3=CCCCC3)CC2)c(C)o1` gave Resorufin autofl inactive, A647 autofl 2.57e-08, A488 fluor inactive, AID923 0.0% and TSHR ag -21.5%.
For COc1ccc(C(=O)N2CCC3(CCN(Cc4ccncc4)CC3)CC2)cc1 the results were Resorufin autofl inactive, A647 autofl 2.41e-08, A488 fluor inactive, AID923 4.2% and TSHR ag inconclusive.
For O=C1CCCN1CN(C(=O)c1ccccc1)c1ccc(F)cc1 the results were Resorufin autofl inactive, A647 autofl 4.17e-08, A488 fluor inactive, AID923 0.0% and TSHR ag -0.6%.
For CN(C)C=Nc1nonc1N the results were Resorufin autofl inactive, A647 autofl 3.71e-08, A488 fluor inactive, AID923 -1.4% and TSHR ag 12.9%.
`CC(C)(C)C(=O)CN1C(=O)C2(OCCO2)c2ccccc21` gave Resorufin autofl inactive, A647 autofl 2.3e-08, A488 fluor inactive, AID923 -1.1% and TSHR ag -1.2%.
`O=C(Cn1ncc2c1-c1ccccc1OC2)Nc1nc2ccccc2s1` gave AID923 -1.9% and TSHR ag -7.7%.
`COc1cc(NC(=O)Cc2cccs2)ccc1-n1cnnn1` gave Resorufin autofl inactive, A647 autofl 7e-09, A488 fluor inactive, AID923 -0.8% and TSHR ag -3.1%.
Screening O=C(c1cc(C(F)(F)F)cc(C(F)(F)F)c1)N1CCC[C@@]2(CCN(Cc3nccs3)C2)C1 returned Resorufin autofl inactive, A647 autofl 1.24e-08, A488 fluor inactive, AID923 18.4% and TSHR ag inconclusive.
Screening COc1ccc(CCNS(=O)(=O)c2ccc3oc(C(=O)O)c(C)c3c2)cc1OC returned Resorufin autofl inactive, A647 autofl 8.9e-09, A488 fluor inactive, AID923 -2.1% and TSHR ag -12.9%.
`CCOc1cc(C2NC(=O)NC(O)(C(F)(F)F)C2C(=O)c2ccc(OC)cc2)ccc1O` (stereo not drawn) gave Resorufin autofl inactive, A647 autofl 5.3e-09, A488 fluor inactive, AID923 -1.4% and TSHR ag -18.7%.
`c1ccc(-c2nnn(C34CC5CC(CC(C5)C3)C4)n2)cc1` gave AID923 0.8% and TSHR ag 31.6µM*.
`CC(C)(C)c1cnnn1-c1ccc(-c2csc(N)n2)cc1` gave Resorufin autofl inactive, A647 autofl 9.9e-09, A488 fluor inactive, AID923 -0.2% and TSHR ag 16.6%.
Screening CCn1c(SCC(=O)Nc2cccc(NC(=O)c3ccco3)c2)nnc1-c1cccs1 returned Resorufin autofl inactive, A647 autofl 6.59e-08, A488 fluor inactive, AID923 0.3% and TSHR ag 2.7%.
`CS(=O)(=O)N(CC(=O)NCc1ccncc1)Cc1ccc(Cl)cc1` gave Resorufin autofl inactive, A647 autofl 2.3e-09, A488 fluor inactive, AID923 -2.0% and TSHR ag 11.6%.
O=C(CN(c1ccc(F)cc1)S(=O)(=O)c1ccc2c(c1)OCCO2)Nc1ccc2c(c1)OCO2 was read as Resorufin autofl inactive, A647 autofl 3.41e-08, A488 fluor inactive, AID923 1.7% and TSHR ag 17.8%.
For O=c1oc2ccccc2c2nccnc12 the results were AID923 0.1% and TSHR ag -2.8%.
For O=C(O)CCCc1nc(-c2ccccc2)no1 the results were Resorufin autofl inactive, A647 autofl 1e-09, A488 fluor inactive, AID923 -0.2% and TSHR ag 3.3%.
`CCOc1ccccc1NC(=O)N1CCCC1C(=O)Nc1ccc(NC(C)=O)cc1` (stereo not drawn) gave Resorufin autofl inactive, A647 autofl 5.2e-09, A488 fluor inactive, AID923 0.7% and TSHR ag 0.2%.
`Cn1c(=O)c2[nH]c(SCCN3CCOCC3)nc2n(C)c1=S` gave Resorufin autofl inactive, A647 autofl 1e-09, A488 fluor inactive, AID923 0.8%[11.5 µM] and TSHR ag -2.8%[11.4 µM].

2 records picked at random from the list so far, as already listed:
`CCOc1ccccc1NC(=O)N1CCCC1C(=O)Nc1ccc(NC(C)=O)cc1` (stereo not drawn) gave Resorufin autofl inactive, A647 autofl 5.2e-09, A488 fluor inactive, AID923 0.7% and TSHR ag 0.2%.
`Cn1c(=O)c2[nH]c(SCCN3CCOCC3)nc2n(C)c1=S` gave Resorufin autofl inactive, A647 autofl 1e-09, A488 fluor inactive, AID923 0.8%[11.5 µM] and TSHR ag -2.8%[11.4 µM].

Source: PubChem (National Center for Advancing Translational Sciences (NCATS))

These rows are one share of the data, so the mix of outcomes need not match the whole.
